ClpP mod = qHTS Assay for Activators of ClpP | ATP-dependent Clp protease proteolytic subunit (Bacillus subtilis (strain 168)), P80244 | purified B. subtilis ClpP, FRET peptide cleavage, 20 min | Potency, µM (highest dose often 57.5 µM), without a hit: at the top dose activity change, negative = active | 340,000 compounds, 1.9% hits | AID 651965, 2013; active = well fitted falling curve with a large enough effect; inconclusive = small, poorly fitted or top-dose-only effect; inactive = no such curve, though single readings can be large or run the other way; also: potency is read from the fitted curve at half-maximal effect; the source files actives as falling curves though it sought activators and does not explain the sign; nearly all actives have a fitted effect of over 65% in size; many hits overshoot -100%
Target sequence (P80244 whole entry, looked up): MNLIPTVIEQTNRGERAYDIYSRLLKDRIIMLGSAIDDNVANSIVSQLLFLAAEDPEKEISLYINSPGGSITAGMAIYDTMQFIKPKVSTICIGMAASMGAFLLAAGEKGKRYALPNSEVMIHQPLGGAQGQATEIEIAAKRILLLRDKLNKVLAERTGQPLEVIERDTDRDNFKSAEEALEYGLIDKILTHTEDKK
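FRET quenching reversal measured ClpP activation: 10 microg/mL B. subtilis ClpP at pH 8 with the FRET-FV decapeptide, read at 430 nm after 320 nm excitation. The 20-min minus 0-min signal was scaled between DMSO/no-enzyme wells and ADEP (5.8 microM final).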
TRPML1 agonist = qHTS for Agonists of the Human Mucolipin Transient Receptor Potential 1 (TRPML1). AID 624414, 2012. activation, % (no concentration beside the values). TRPML1-expressing cells, Ca2+ dye fluorescence, FDSS; host cell line not named in the record; reference of the full effect not given here. Mucolipin-1 (Homo sapiens), Q9GZU1. 410,000 compounds, 0.12% hits; in the data active = activation above about 50%; inconclusive = about 30% to 50%; inactive = below about 30%; also: 0% is about no effect; the text of the record puts the active cut at 80%
Target sequence (Q9GZU1 whole entry, looked up): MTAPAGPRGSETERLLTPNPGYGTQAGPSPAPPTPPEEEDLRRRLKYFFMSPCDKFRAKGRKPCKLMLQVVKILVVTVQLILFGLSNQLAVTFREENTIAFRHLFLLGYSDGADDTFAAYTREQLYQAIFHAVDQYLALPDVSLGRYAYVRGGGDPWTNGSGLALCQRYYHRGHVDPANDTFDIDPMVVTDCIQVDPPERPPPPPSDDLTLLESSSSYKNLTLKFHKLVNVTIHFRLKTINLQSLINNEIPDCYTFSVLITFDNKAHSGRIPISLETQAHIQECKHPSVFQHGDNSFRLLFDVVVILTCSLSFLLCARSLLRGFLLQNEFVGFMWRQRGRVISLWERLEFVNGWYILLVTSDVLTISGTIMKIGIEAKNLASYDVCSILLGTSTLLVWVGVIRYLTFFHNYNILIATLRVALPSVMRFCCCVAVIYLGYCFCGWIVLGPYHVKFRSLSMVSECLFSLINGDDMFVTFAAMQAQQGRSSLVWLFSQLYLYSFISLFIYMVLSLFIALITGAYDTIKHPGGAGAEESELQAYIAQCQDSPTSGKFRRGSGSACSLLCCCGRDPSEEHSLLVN
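Kinetic FDSS Ca2+ read in Tet-induced TRPML1-DL cells (ABD Ca8 dye plus quencher, 45-90 min RT loading): baseline, then compound, then 110 s agonist window; EC80 agonist 54-4 at 4uM final added afterwards for a 110 s antagonist window.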
Menin-MLL FL inh = qHTS Assay for Inhibitors Targeting the Menin-MLL Interaction in MLL Related Leukemias: Competition With Fluorescein Labeled MLL-derived Peptide | Fluorescence polarization, fluorescein-MLL peptide displacement from menin | FP activity change, % at 61.4 µM | 290,000 tested, under 10 active | AID 1766, 2009; inconclusive = falling polarisation curve, or a change in total fluorescence; inactive = total fluorescence flat and polarisation flat or rising; no compound was filed as active; the % refers to the polarisation; negative = inhibition;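 also: % of control where 0% means no effect; inhibitors lower the polarisation; unlabelled MLL peptide was the positive control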
PINK1 modulator = A Quantitative High throughput Screen to Identify Chemical Modulators of PINK1 Expression; 410,000 compounds, 0.2% hits; Potency, µM (highest dose often 76.6 µM), inactives show top-dose activation (PINK1 increase), most hits filed as activators; PINK1 immunofluorescence, high-content cytometry, 24 h; active = well fitted activation curve with a large enough effect; inconclusive = small, poorly fitted or top-dose-only effect; inactive = flat fitted curve, though single readings scatter; cell line not stated here;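 also: potency is read from the fitted curve at half-maximal effect; % of control where 0% means no effect; nearly all actives have a fitted effect of over 65% in size; a mitochondrial uncoupler was the plate control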
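Stable cell line, 250 cells/well, 12 h attachment; compounds pinned at 5 concentrations, 24 h; CCCP control. Fixed with nuclear dye, primary antibodies 12 h at 10 degrees C, secondary plus cell stain; laser-scanning cytometer read.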
Sfp inh = qHTS Assay for Inhibitors of Bacillus subtilis Sfp phosphopantetheinyl transferase (PPTase). Biochemical Sfp PPTase activity, qHTS. Potency, µM, without a hit: max response, negative = inhibition, usual class: inhibitors. 310,000 compounds, 3.5% hits; active = well fitted inhibition curve with a large enough effect; inconclusive = small, poorly fitted or top-dose-only effect, or another doubt; inactive = no such curve, though single readings can be large or run the other way;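 also: the enzyme is Sfp with the accession as filed and its product quenches rhodamine fluorescence; potency is read from the fitted curve at half-maximal effect; 0% = enzyme reaction without inhibitor and -100% = no enzyme wells; top concentration of the series not given in the record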
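Fluorescence-quenching assay: 15 nM Sfp-PPTase preincubated 15 min at room temperature with compound, then 5 uM rhodamine-CoA and 12.5 uM BHQ-2-labelled YbbR peptide added. Fluorescence (ex 525/em 598 nm) read at start and after 30 min; difference gives rate.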
TRPML1 blocker = qHTS for Inhibitors of the Human Mucolipin Transient Receptor Potential 1 (TRPML1); Mucolipin-1 (Homo sapiens), Q9GZU1; TRPML1-inducible cells, Ca2+ dye fluorescence, FDSS; active compounds read low; inhibition of EC80 agonist-evoked calcium signal; activity change, negative = inhibition, % (test concentration not listed); 390,000 compounds, 0.02% hits; in the data active means activity change below about -50%; inconclusive means about -30% to -50%; inactive means above about -30%;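 also: stimulus is agonist 54-4 at its EC80 concentration; % is scaled to controls: 0 for no effect and ±100 for the full control effect; compound concentration not given in the record; the text of the record puts the active cut at -80%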
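Calcium fluorescence in TRPML1-DL cells induced overnight with Tet: a 110 s read after compound pin addition, then a 110 s antagonist read after challenge with 54-4 at 4 uM final (EC80).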
TRPV1 potentiator = HTS Assay for Compounds that Act as Potentiators of the Vanilloid Receptor 1 | Transient receptor potential cation channel subfamily V member 1 (Homo sapiens), Q8NER1 | TRPV1-expressing cells, Fluo-8 calcium influx, capsaicin EC20 potentiation; host cell line not named in the record; control for the full effect not named in the record | potentiation, % at 8.33 µM | 320,000 compounds, 0.02% hits; active means potentiation above 80%; inconclusive means 30% to 80%; inactive means below 30%; also: 0% is about no effect
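Fluo-8 calcium influx in TRPV1-expressing cells, kinetic read (ex 480/em 520 nm). Compound added and read 3 min for agonist activity, followed by capsaicin at EC20 final and 2 min further read for enhancement.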
* = called active by the depositor; ? = inconclusive; / = not tested or not shown; [ ] = dose if it differs, or a comment.

SMILES	ClpP mod	TRPML1 agonist	Menin-MLL FL inh	PINK1 modulator	Sfp inh	TRPML1 blocker	TRPV1 potentiator
O=C(NCC1OCCc2ccccc21)C1COc2ccccc2O1 (stereo not given)	/	-1.0	0.3	-0.3%	9%	-9	-12
CSc1ncccc1C(=O)Nc1cccc(C)n1	-0.4%	0.9	0.5	2.7%	17%	8	8
CCc1ccc(NC(=O)c2ccc3c(=O)n4nc(Nc5ccccc5C)sc4nc3c2)cc1	-5.9%	1.3	/	0.8%	/	-10	/
COCC(=O)N1CCC(Oc2ccc(C(=O)N(C)Cc3nccs3)cc2)CC1	0.6%	-0.3	/	0.6%	24%	29	6
COCCN1C(=O)C(O)=C(C(C)=O)C1c1ccc(OC)c(OC)c1 (stereo not given)	-2.3%	0.3	1.5	-1.2%	-11%	-2	4
O=C(CCC(=O)NC1CCCCC1)NCc1ccc(F)cc1	-0.8%	0.8	0.6	2.2%	2%	3	8
CCCc1cc(C(=O)NC(C)C2CCCO2)cs1 (stereo not given)	0.9%	-0.2	/	-0.8%	9%	2	0
CCc1nc2c(OCC3CCCCC3)cccn2c1N(C)C(=O)c1ccc(C)cc1	0.5%	0.4	/	22%	/	48	/
COC(=O)c1cc(C(=O)OC)cc(N2C(=O)CC(N3CCN(c4ccccc4)CC3)C2=O)c1 (stereo not given)	?	0.0	0.5	0.0%	-4%	12	11
COc1ccc(/C=C2\C(=O)NCC(=O)N2C)cc1	-3.1%	-0.2	4.0	0.6%	0%	2	4
O=C(O)c1ccccc1C(=O)NCCc1c(C(=O)O)[nH]c2ccc(F)cc12	/	1.1	-2.9	1.7%	24%	0	15
C/C(=N/NC(=O)c1ccc(Br)o1)C(C)C	?	-0.2	4.4	0.4%	-2%	7	-8
CSc1ncc(Cl)c(C(=O)Nc2ccccc2C)n1	-2.6%	-1.3	4.3	1.5%	14%	-18	?
Cc1cc(C(=O)NNC(C)Cc2ccccc2)no1 (stereo not given)	-0.7%	-0.5	/	0.5%	/	5	/
CC(=O)c1ccc(-c2cnc3c(NC=O)cc(-c4ccc(N5CCN(C)CC5)cc4)cn23)cc1	-5.4%	1.6	/	10%	/	-10	/
CCc1ccc(C(O)c2ncc(-c3cccc(OC)c3)[nH]2)cc1 (stereo not given)	-2.2%	-1.3	/	-0.5%	/	/	/
O=C(CN1C(=O)COc2ccc(S(=O)(=O)N3CCCCCC3)cc21)N1CCN(c2ccccc2)CC1	-3.7%	1.4	/	2.1%	/	19	/
CCn1c(SCC(=O)Nc2nc3ccccc3s2)nc2c(c1=O)SC(C)C2 (stereo not given)	-0.8%	3.0	1.6	-0.1%	8%	-2	9
COCCN(C)Cc1cn(-c2ccc(F)cc2F)nc1-c1ccccc1C	/	1.4	1.3	-0.2%	89µM*	5	0
COc1ccccc1CNc1cncnc1	-19%	-1.0	2.9	1.6%	5%	-8	11
COc1ccc(C#Cc2cccc(-c3nc(C(=O)NCc4ccc(Oc5ccccc5)cc4)cc4c3[C@@H](CCO)N(S(=O)C(C)(C)C)C4)c2)cc1OC (stereo not given in full)	-8.6%	0.1	/	-0.6%	/	17	/
CNC[C@@H]1Oc2ccc(NC(=O)Nc3ccccc3)cc2C(=O)N([C@@H](C)CO)C[C@H]1C	3.9%	-0.6	/	0.2%	/	3	/
Cc1nn(-c2ccc(F)cc2)c2sc(C(=O)OC3CCOC3=O)cc12 (stereo not given)	13%	0.4	0.5	1.2%	?	14	0
CC[C@H](NC(=O)CC[C@H]1O[C@@H](n2cnc3c(NC(=O)c4ccccc4)ncnc32)[C@H](O)[C@@H]1O)c1ccccc1	-0.9%	-0.2	/	0.0%	/	/	/
CCOc1ccc(OCCCCN(C)C)cc1	1.3%	-0.5	-0.4	-0.2%	?	-14	3
CC1(C)CNC(=O)c2sc(NC(=O)c3ccccc3Cl)nc2C1	-0.8%	0.2	-0.1	3.6%	5%	-5	0
CN(C)c1ccc(-c2nccc(NCc3cccs3)n2)cc1	/	/	2.6	?	?	/	/
CCOc1ccc(C(=O)Nc2ccc3oc(-c4cccnc4)nc3c2)cc1	-12%	-0.8	/	1.5%	/	-8	/
CCOc1ccc(NS(=O)(=O)c2cc(NC(=O)c3ccc(C)cc3)ccc2Cl)cc1	-8.0%	2.7	5.4	6.2%	16%	18	-10
COc1ccc(NC(=O)Cn2cnc3sc(C)c(S(=O)(=O)N4CCOCC4)c3c2=O)cc1Cl	/	-0.1	-3.3	2.7%	14%	-2	6
CS(=O)(=O)Nc1cccc(-c2ccc3ncnc(NC4CC4)c3c2)c1	/	/	1.7	4.3%	22%	/	/
O=C(C1CC(c2cccc(Br)c2)=NO1)N1CCc2ccccc2C1 (stereo not given)	-2.8%	1.7	0.7	-3.6%[38.3 µM]	13%	32	?
C=CCOc1ccccc1CNCCc1ccc(S(N)(=O)=O)cc1	/	-0.1	-5.7	-1.9%	11%	11	-1
Cn1cc(CNC(=O)C2CCC(=O)N(Cc3ccc(Cl)cc3)C2)cn1 (stereo not given)	0.9%	-0.5	11	-0.1%	10%	-4	5
O=C(CN1C(=O)/C(=C2\SC(=S)N(CCS(=O)(=O)O)C2=O)c2ccccc21)Nc1cccc(Br)c1	/	2.8	?	4.0%	56µM*	-15	4
CC(C)(C)OC(=O)C[C@H]1C/C=C\C[C@@H](CC(=O)NCCO)C(=O)NC[C@H](c2ccccc2)OC1=O	-0.7%	-0.3	/	-0.6%	/	-3	/

Quoted from the entries so far, 3 compounds:
SMILES	ClpP mod	TRPML1 agonist	Menin-MLL FL inh	PINK1 modulator	Sfp inh	TRPML1 blocker	TRPV1 potentiator
Cn1cc(CNC(=O)C2CCC(=O)N(Cc3ccc(Cl)cc3)C2)cn1 (stereo not given)	0.9%	-0.5	11	-0.1%	10%	-4	5
O=C(CN1C(=O)/C(=C2\SC(=S)N(CCS(=O)(=O)O)C2=O)c2ccccc21)Nc1cccc(Br)c1	/	2.8	?	4.0%	56µM*	-15	4
CC(C)(C)OC(=O)C[C@H]1C/C=C\C[C@@H](CC(=O)NCCO)C(=O)NC[C@H](c2ccccc2)OC1=O	-0.7%	-0.3	/	-0.6%	/	-3	/

Carrying on.
SMILES	ClpP mod	TRPML1 agonist	Menin-MLL FL inh	PINK1 modulator	Sfp inh	TRPML1 blocker	TRPV1 potentiator
CC1=CC2=NC(=O)CC(C)(C(=O)N(CC(=O)NC3CCCC3)c3ccccc3F)N2C=C1 (stereo not given)	/	8.7	5.0	0.1%	-2%	-18	5
O=C(NCc1ccco1)C(c1ccccc1F)N(CC1CCCO1)C(=O)Cn1nnc2ccccc21 (stereo not given)	1.1%	-1.0	-3.9	-1.4%	-2%	-6	6
CC(=O)N1CCCc2cc(S(=O)(=O)N3CCC(C(=O)NCc4ccccc4)CC3)ccc21	0.2%	1.2	/	-0.9%	/	6	/
COC1CCN(C(=O)C2CCC(=O)N(CCc3cccc(F)c3)C2)CC1 (stereo not given)	-1.9%	0.1	/	0.0%	18%	11	?
Cc1ccccc1N(CC(=O)NC1CCCCC1)C(=O)CCC(=O)Nc1nccs1	/	0.1	-0.7	-1.3%	11%	2	24
CC(=O)c1ccc(N(C(=O)Cc2c[nH]c3ccccc23)C(C(=O)NC2CCCCC2)c2cccs2)cc1 (stereo not given)	-1.4%	1.1	9.3	-0.5%	4%	7	-14
Cc1ccc(NC(=O)Cn2nnc(C(=O)Nc3ccc(C)c(C)c3)c2N)cc1	-15%	1.2	1.6	-1.5%	-8%	6	-7
CC12CCC(=O)N1C(C(=O)OCC(=O)Nc1cc(S(=O)(=O)N3CCCCC3)ccc1Cl)CS2 (stereo not given)	-19%	0.9	0.2	-0.2%	-4%	12	5
CCOC(=O)CSc1nnc(CNc2cccc(Cl)c2)n1-c1ccccc1	-5.9%	1.5	2.2	0.1%	-10%	-6	0
Cc1ccc2oc(=O)c3cnn(CC(=O)Nc4cccc(C(F)(F)F)c4)c3c2c1	0.0%	0.1	/	-0.1%	/	-2	/
CCOC(=O)C(C)Sc1nc2c(c(=O)[nH]c(=O)n2C)n1CCc1ccccc1 (stereo not given)	-4.5%	1.2	2.7	2.6%	-5%	0	/
COc1ccc(N2CCN(CCCNC(=O)c3cc(Nc4ccccc4OC)nc4ccccc34)CC2)cc1	-18%	1.2	/	2.1%	/	3	/
CCCCN(C(=O)CC1CCCCC1)c1c(N)n(CC(C)C)c(=O)[nH]c1=O	1.3%	1.0	/	6.0%	/	0	-1
Cc1ccc(S(=O)(=O)NC(C)C(=O)Nc2ccc(C(N)=O)cc2)cc1 (stereo not given)	-0.3%	-0.2	-2.3	0.2%	16%	-3	1
O=c1oc2ccccc2c2c1ncn2-c1ccccc1	-1.1%	0.3	1.1	0.4%[38.3 µM]	2%	8	-3
CCOC(=O)Cc1cc(=O)n2[nH]c(C)c(-c3ccc(OC)cc3)c2n1	?	0.2	-0.5	-0.2%	-17%	2	8
CC(=O)/C=C\c1ccc(OC(=O)c2cccnc2)cc1	3.6%	0.8	-5.1	2.8%	8%	12	-1
COc1ccc(NC(=O)CN(c2ccccc2)S(=O)(=O)N(C)C)cc1Cl	/	2.0	-1.7	-3.0%	-7%	-5	-2
COc1ccccc1OCCOc1ccc(C(=O)c2ccccc2)cc1	-1.8%	0.8	/	1.8%	-1%	22	?
O=C(NCc1ccc2c(c1)CCN2C(=O)c1ccccc1)c1ccccc1	-1.5%	0.4	/	-0.2%	/	1	/
CC(OC(=O)CCN=C1NS(=O)(=O)c2ccccc21)C(=O)Nc1ccc(F)cc1Cl (stereo not given)	/	0.3	/	-2.8%	/	-6	-9
CCOc1ccc(CCNC(=O)Cn2ccc3cc(S(=O)(=O)N4CCCC4)ccc32)cc1	/	1.5	-1.7	-1.6%	11%	-6	17
O=C(Nc1sc2c(c1C(=O)O)CCC2)c1cccs1	-2.3%	1.5	1.9	0.9%	-12%	-2	1
CS(=O)(=O)Nc1cccc(C2=NN(S(C)(=O)=O)C(c3ccccc3)C2)c1 (stereo not given)	/	-0.2	6.5	0.6%	-4%	11	15

Bioassay records deposited in PubChem BioAssay by National Center for Advancing Translational Sciences (NCATS).
